Assay outcomes as filed in PubChem.
M5 PAM: positive allosteric modulators of human muscarinic M5 receptor; 0.3% of 360,000 active; CHO-K1 hM5, Fluo-8 calcium, ACh EC20 PAM; 0% = ACh EC20, 100% = ACh EC100; P08912; activation, % at 3 µM;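 active means activation above the run cutoff, the mean activation of all test compounds plus 3 SD, cut at about 18% in these data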
Target sequence (P08912 whole entry, looked up): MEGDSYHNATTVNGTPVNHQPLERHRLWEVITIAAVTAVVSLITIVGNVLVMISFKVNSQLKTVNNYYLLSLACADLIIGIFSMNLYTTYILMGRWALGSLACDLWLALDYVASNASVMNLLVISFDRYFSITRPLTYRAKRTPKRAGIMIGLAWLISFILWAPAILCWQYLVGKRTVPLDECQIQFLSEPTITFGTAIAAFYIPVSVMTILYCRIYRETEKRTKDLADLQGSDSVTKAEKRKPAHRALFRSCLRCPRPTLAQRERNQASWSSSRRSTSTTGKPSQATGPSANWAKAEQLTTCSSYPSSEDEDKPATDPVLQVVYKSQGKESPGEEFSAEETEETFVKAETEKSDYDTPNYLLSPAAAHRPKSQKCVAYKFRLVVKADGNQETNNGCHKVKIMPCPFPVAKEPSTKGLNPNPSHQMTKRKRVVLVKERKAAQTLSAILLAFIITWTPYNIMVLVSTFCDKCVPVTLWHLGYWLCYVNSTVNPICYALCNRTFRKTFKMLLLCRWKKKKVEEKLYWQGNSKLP
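System: CHO-K1 hM5 cells. Reagent: acetylcholine, EC20 level. Compound dosing: single dose, 3 µM nominal final test concentration. Timing: Post-acetylcholine fluorescence recording 140 s. Detection: Fluo-8 calcium fluorescence. Read-out: % activation, ACh-normalized. Benchmarks: ACh EC20 and EC100 wells. Repeats: singlicate, one well per test compound.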
CHRM5 antagonist: CHRM5 antagonism in calcium assay; CHO-hM5 cells, Fluo-8 calcium fluorescence, ACh EC80; P08912; 0.59% of 360,000 active; inhibition, % at 3 µM;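 active means inhibition above a per-plate cutoff, the mean of that plate's test compounds plus 3 SD, cut at about 27% in these data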;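 further: 0% = acetylcholine EC80 with DMSO and 100% = DMSO without agonist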
M5 ag: agonists of human muscarinic M5 receptor (CHRM5) | 0.19% of 360,000 active | activation, % at 3 µM | CHO-K1 hM5 cells, Fluo-8 calcium fluorescence; 0% DMSO wells, 100% maximal acetylcholine response;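 active means activation above the run's mean over test compounds plus 3 SD, cut at about 23% in these data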;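 further: signal is peak over basal fluorescence ratio across the kinetic read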
* marks the source's active call; other numbers are inactive results; & = joins results of further samples. The list is partial; rates above refer to the full screens.

[1] CN1CCCN=C1/C=C/c1cccs1
[2] O=C(NCC1CCCCN1)c1cc(OCC(F)(F)F)ccc1OCC(F)(F)F (stereo not drawn)
[3] COc1ccc2cc(C(C)C(=O)O)ccc2c1 (stereo not drawn)
[4] NCCc1cnc[nH]1
[5] CC[C@H]1OC(=O)[C@H](C)[C@@H](O[C@H]2C[C@@](C)(OC)[C@@H](O)[C@H](C)O2)[C@H](C)[C@@H](O[C@@H]2O[C@H](C)C[C@H](N(C)C)[C@H]2O)[C@](C)(O)C[C@@H](C)C(=O)[C@H](C)[C@@H](O)[C@]1(C)O

compound no.	1	2	3	4	5
M5 PAM	-3	0	-2	0&1	0
CHRM5 antagonist	4	-8	-1	2&-2	5
M5 ag	-8	-1	0	8&1	1

[6] CNC(=O)c1c(I)c(C(=O)NCC(=O)Nc2c(I)c(C(=O)O)c(I)c(C(=O)NCCO)c2I)c(I)c(N(C)C(C)=O)c1I
[7] CCOC(=O)Nc1ccc2c(c1)N(C(=O)CN(C)C)c1ccccc1CC2
[8] CN1CCC[C@H]1c1cccnc1
[9] CC(=O)O[C@H]1C[C@@]2(C)[C@@H](C[C@@H](O)[C@H]3[C@@]4(C)CC[C@@H](O)[C@@H](C)C4CC[C@@]32C)/C1=C(\CCC=C(C)C)C(=O)O (stereo partly drawn)
[10] CCN[C@H]1C[C@H](C)S(=O)(=O)c2sc(S(N)(=O)=O)cc21

compound no.	6	7	8	9	10
M5 PAM	0	-10	-4&3	-1	7
CHRM5 antagonist	-6	-6	9&-5	-2	-8
M5 ag	0	0	0&1	1	1

[11] NCCc1ccc(O)c(O)c1
[12] CN(C)C(=O)C(CCN1CCC(O)(c2ccc(Cl)cc2)CC1)(c1ccccc1)c1ccccc1
[13] NCCS
[14] O=C(O)[C@H](O)[C@@H](O)C(=O)O
[15] O=C(CO)C(O)C(O)C(O)CO (stereo not drawn)

compound no.	11	12	13	14	15
M5 PAM	3	-2	-1	2	-2
CHRM5 antagonist	-6	0	5	3	10
M5 ag	0	2	0	3	1

[16] CCN(CC)C(=S)SSC(=S)N(CC)CC
[17] O=C(N[C@H](CO)[C@H](O)c1ccc([N+](=O)[O-])cc1)C(Cl)Cl
[18] CCCc1nc(C)c2c(=O)[nH]c(-c3cc(S(=O)(=O)N4CCN(CC)CC4)ccc3OCC)nn12
[19] CC(=O)O[C@]1(C(C)=O)CC[C@H]2[C@@H]3C=C(C)C4=CC(=O)CC[C@]4(C)[C@H]3CC[C@@]21C
[20] COc1cc(NS(=O)(=O)c2ccc(N)cc2)nc(OC)n1

compound no.	16	17	18	19	20
M5 PAM	-6	4	-7	-3	-6
CHRM5 antagonist	3	2	7	0	9
M5 ag	16	2	-1	0	0

Twelve of these compounds in another layout.
cpd | compound | M5 PAM | CHRM5 antagonist | M5 ag
1 | CN1CCCN=C1/C=C/c1cccs1 | -3 | 4 | -8
2 | O=C(NCC1CCCCN1)c1cc(OCC(F)(F)F)ccc1OCC(F)(F)F (stereo not drawn) | 0 | -8 | -1
3 | COc1ccc2cc(C(C)C(=O)O)ccc2c1 (stereo not drawn) | -2 | -1 | 0
4 | NCCc1cnc[nH]1 | 0&1 | 2&-2 | 8&1
5 | CC[C@H]1OC(=O)[C@H](C)[C@@H](O[C@H]2C[C@@](C)(OC)[C@@H](O)[C@H](C)O2)[C@H](C)[C@@H](O[C@@H]2O[C@H](C)C[C@H](N(C)C)[C@H]2O)[C@](C)(O)C[C@@H](C)C(=O)[C@H](C)[C@@H](O)[C@]1(C)O | 0 | 5 | 1
6 | CNC(=O)c1c(I)c(C(=O)NCC(=O)Nc2c(I)c(C(=O)O)c(I)c(C(=O)NCCO)c2I)c(I)c(N(C)C(C)=O)c1I | 0 | -6 | 0
7 | CCOC(=O)Nc1ccc2c(c1)N(C(=O)CN(C)C)c1ccccc1CC2 | -10 | -6 | 0
8 | CN1CCC[C@H]1c1cccnc1 | -4&3 | 9&-5 | 0&1
9 | CC(=O)O[C@H]1C[C@@]2(C)[C@@H](C[C@@H](O)[C@H]3[C@@]4(C)CC[C@@H](O)[C@@H](C)C4CC[C@@]32C)/C1=C(\CCC=C(C)C)C(=O)O (stereo partly drawn) | -1 | -2 | 1
10 | CCN[C@H]1C[C@H](C)S(=O)(=O)c2sc(S(N)(=O)=O)cc21 | 7 | -8 | 1
11 | NCCc1ccc(O)c(O)c1 | 3 | -6 | 0
12 | CN(C)C(=O)C(CCN1CCC(O)(c2ccc(Cl)cc2)CC1)(c1ccccc1)c1ccccc1 | -2 | 0 | 2

The results go on:
(21) CCCCC[C@H](O)/C=C/[C@@H]1[C@@H](C/C=C\CCCC(=O)O)[C@@H](O)C[C@H]1O
  M5 PAM: -10
  CHRM5 antagonist: 10
  M5 ag: 0

(22) CC(=O)[C@H]1CC[C@H]2[C@@H]3CCC4=CC(=O)CC[C@]4(C)[C@H]3CC[C@]12C
  M5 PAM: -8&-9
  CHRM5 antagonist: -7&-2
  M5 ag: 10&3

(23) COc1ccccc1OC[C@H](O)CO
  M5 PAM: -1
  CHRM5 antagonist: -4
  M5 ag: 1

(24) C(=C\c1ccccc1)/CN1CCN(C(c2ccccc2)c2ccccc2)CC1
  M5 PAM: -18
  CHRM5 antagonist: 16
  M5 ag: -2

(25) C[C@]12CC[C@@H]3c4ccc(O)cc4CC[C@H]3[C@@H]1CCC2=O
  M5 PAM: -8
  CHRM5 antagonist: 4
  M5 ag: 5
